H5N1 antiviral: MDCK cell protection from H5N1 avian flu | cytopathic effect, luminescence, 72 h; hits give high values; no value below 0 was filed and about half of the inactive calls have no number; reference of the scale not given here | inhibition, % at 50 µM | actives 0.07% (n = 96,000) | AID 740; in the data active = inhibition above about 25%
* = called active by the depositor; i = inactive. This is a subset, so the mix of outcomes need not match the whole.

SMILES | H5N1 antiviral
CCOc1ccc(NC(=O)CSc2nccn2C)cc1 | i
Brc1ccccc1-c1nnc(CSc2nnc3sc4ccccc4n23)o1 | 1.7
Cc1cc(C)cc(NC(=S)N2CCC(c3nc4ccccc4s3)CC2)c1 | i
CCOC(=O)COc1ccc(/C=C2/SC(=Nc3ccccc3)N(Cc3cccnc3)C2=O)cc1OC | 0.2
O=C(CSc1nc2ccccc2n1CC(=O)NCc1ccccc1)NCc1ccco1 | i
Cc1sc2c(c1C)C(c1ccc(C(C)(C)C)cc1)=NCC(=O)N2CC(=O)Nc1nccs1 | i
O=C(CSC(=S)N1CCCCC1)N1N=CCC1c1ccccc1 (stereo unspecified) | 0.5
CCOC(=O)C1=C(C)NC(C)=C(C(=O)OCC)C1C(=O)O | 0.4
O=C(Nc1ccccc1F)C1CCCN(S(=O)(=O)c2cccc3cccnc23)C1 (stereo unspecified) | 6.6
COc1ccc(OC)c(C2CC(=O)N3CN(c4ccccc4F)CSC3=C2C#N)c1 (stereo unspecified) | 1.9
COC(=O)c1c(-c2ccccc2)csc1N | 0.2
CC1CCc2c(sc3c2C2=NS(=O)(=O)CCN2C=N3)C1 (stereo unspecified) | 0.7
Nc1ccccc1C(=O)OC1CSC1 | 0.6
CCOC(=O)c1oc2ccccc2c1CN1CCN(C(=O)c2ccccc2)CC1 | 0.4
COCCn1c(Sc2ccccc2)nc2c1c(=O)[nH]c(=O)n2C | 4.2
CC(=O)c1c(C)[nH]c(C(=O)CSc2nnc(CN3CCCCCC3=O)n2-c2ccccn2)c1C | i
CCCNC(=O)Cn1cnc2sc(C(=O)Nc3ccc4c(c3)OCO4)c(C)c2c1=O | i
Cc1cc(C)nc(SCC(=O)c2cc3ccccc3oc2=O)n1 | 2.5
O=C(O)C1CC=C(Cl)CC1C(=O)NCC1OCCc2ccccc21 (stereo unspecified) | i
Cc1cc(S(=O)(=O)N2CCOCC2)ccc1F | 0.3
FC(F)(F)c1nc(N2CCCC2)ncc1-c1nnnn1-c1ccc(Cl)cc1 | 1.6
COCCSc1nc2sc3c(c2c(=O)n1-c1ccccc1)CCN(C)C3 | 3.3
CCOc1cc(S(=O)(=O)Nc2ccccc2CC)ccc1Cl | 0.8
O=C(N/N=C/c1ccncc1)c1cc2c(ccc3ccccc32)o1 | 0.2
C=C(C)Cn1c(-c2ccccc2)nc2ccccc21 | 3.0

Continued:
SMILES | H5N1 antiviral
CCn1nc(C)c(/C=C2\CCCC3=C2OC(N)=C(C#N)C3c2c(C)nn(CC)c2C)c1C (stereo unspecified) | 0.5
Cc1cc(C)n2nc(SCC(=O)N/N=C/c3ccc(F)cc3)nc2n1 | 1.7
COc1ccc(C2CC(=O)c3c(C)nc(N4CCN(Cc5ccccc5)CC4)nc3C2)cc1OC (stereo unspecified) | 1.1
CCC(C)C(NC(=O)c1ccccc1NC(=O)c1ccc(OC)cc1)C(=O)NCc1ccco1 (stereo unspecified) | 0.2
NC(=O)C1CCN(CC(=O)NCc2ccccc2)CC1 | 1.2
COc1ccc(N/C=C(\C#N)c2nc3ccccc3n2C)c(OC)c1 | 5.2
Cc1nc(NS(=O)(=O)c2ccc(Br)cc2)c2c3c(sc2n1)CCC3 | 1.7
CCOc1ccc2nc(NC3=NC(C)(C)C=C(C)N3)nc(C)c2c1 | i
COc1ccc(S(=O)(=O)NCCSc2ccc(C)cc2)cc1OC | i
CCN(c1ccccc1)S(=O)(=O)c1ccc(F)c(C(=O)O)c1 | 1.1
O=C(COC(=O)C1CCC1)Nc1ccc(OC(F)F)cc1 | 0.1
N#Cc1c(Nc2ccccc2)c(C=NCCN2CCOCC2)c[nH]c1=O | 0.7
CCOc1ccc(NC(=O)c2ccc(C#CC(C)(C)O)cc2)cc1 | i
O=C(NCc1ccc2c(c1)OCO2)C1CCN(c2ncccn2)CC1 | i
CN1CCN(CP(=O)(N2CCOCC2)N2CCOCC2)CC1 | 0.5
O=C(NCC(=O)N(CC1CCCO1)C(C(=O)NC1CCCC1)c1ccc(F)cc1)c1ccco1 (stereo unspecified) | 0.2
COC(=O)C1=C(C)NC(C)=C(C(=O)OC)C1c1cn(-c2ccccc2)nc1-c1ccco1 | i
Cc1cc(C)n2[nH]c(=O)c(N=Nc3ccccc3)c2n1 | i
N=c1nc(N)nc2n1NC(c1ccc(F)cc1)=CS2 | 2.2
CC1(C)C(=O)C2(C(=O)NCc3ccccc3)CCC1C2 (stereo unspecified) | 1.8
CCOC(=O)c1cc2n(n1)C(C(F)(F)C(F)(F)F)CC(C)N2 (stereo unspecified) | 0.9
COc1cc(C2C(C(=O)OCCC#N)=C(C)NC3=C2S(=O)(=O)c2ccccc23)cc(OC)c1OC (stereo unspecified) | 2.1
CN(C)/C=N/C(=S)Nc1ccccc1F | 0.1
COc1ccccc1N1CCN(C(=O)CSc2nc(C)c(Cc3ccccc3)c(=O)[nH]2)CC1 | 0.3
Cc1nc2ccccn2c1-c1nnco1 | i

In a second layout: 3 of the compounds above
compound	H5N1 antiviral
Cc1cc(C)n2[nH]c(=O)c(N=Nc3ccccc3)c2n1	i
N=c1nc(N)nc2n1NC(c1ccc(F)cc1)=CS2	2.2
CC1(C)C(=O)C2(C(=O)NCc3ccccc3)CCC1C2 (stereo unspecified)	1.8

(cont.)
SMILES | H5N1 antiviral
O=C(NCc1ccccc1)c1cc(-c2cccs2)on1 | i
c1ccc(-c2cc(-c3nnc4sc(-c5ccccn5)nn34)[nH]n2)cc1 | 0.9
Cc1cc(C)n(-c2nc3ccccc3c(=O)n2OCC(N)=O)n1 | 0.4
Cc1cc(C)c(C#N)c(SC(F)F)n1 | i
COc1ccc(-c2nc3ccccc3n2CCC(C)C)cc1OC | 1.8
CCCc1[nH]nc2c1C1(CCN(C(=O)OCc3ccccc3)CC1)C(C#N)=C(N)O2 | i
Cc1ccc(N(C)S(=O)(=O)c2cccc(C(=O)NC3=NCCS3)c2)cc1 | i
CCOc1ccccc1N1CCN(C(=O)c2cc3c(s2)CCC3)CC1 | 0.5
O=C(OCCN1C(=O)c2ccccc2C1=O)c1cc(=O)[nH]c2ccccc12 | 1.9
COc1nc(C)nc2c1sc1nc3c(cc12)COC(C)(C)C3 | 1.7
CCC(c1nnnn1CCOC)N(Cc1cc2cc(C)c(C)cc2[nH]c1=O)CC1CCCO1 (stereo unspecified) | 0.1
COc1cc(NS(=O)(=O)c2ccc(Br)s2)cc(OC)c1 | 2.3
COC(=O)c1scc(C)c1N/N=C(\C)c1cc(F)c(Cl)cc1F | 2.4
O=C(Nc1ccccc1)N(Cc1ccccc1)CC(O)C(F)(F)F (stereo unspecified) | 0.7
CCn1nc(NC(=O)c2ccccn2)c2cc3cc(C)ccc3nc21 | i
CCn1c(CNc2ccc(C)cc2C)nnc1SCC(=O)N1CCCc2ccccc21 | i
CC(Sc1nc2ccccc2c(=O)n1Cc1ccco1)C(=O)c1ccccc1 (stereo unspecified) | i
O=S(=O)(c1ccc(Cl)cc1)c1cnc(-c2cccnc2)nc1-c1ccccc1 | i
CCCCCc1c(C)nc(N2CCOCC2)[nH]c1=O | 0.4
Cc1cccc2cc(COC(=O)c3ccccc3)c(=O)[nH]c12 | 1.2
O=C(CCCSc1nc2ccccc2[nH]1)NC1=NCCS1 | i
COc1cccc(-c2nc(NCC3CCCO3)c3ccccc3n2)c1O (stereo unspecified) | 4.1
CCN(CC)C(=O)CSc1nnc(-c2cc(OC)cc(OC)c2)o1 | i
CC(=O)CC1(O)C(=O)N(CN2CCN(c3ccccc3)CC2)c2ccccc21 (stereo unspecified) | i
COc1cc(C)nc(Oc2ccc(OCc3ccccc3)nn2)n1 | 0.2

Following part.
SMILES | H5N1 antiviral
COC(=O)C1=C(C)NC(C)=C(C(=O)OC)C1/C=C/c1ccccc1 | i
Cc1ccc2[nH]c(=O)c(COC(=O)C3CCCO3)cc2c1 (stereo unspecified) | 0.1
COc1ccc(CCNC(=O)COc2ccc(S(=O)(=O)NC(C)C)cc2Cl)cc1OC | i
Cc1nnc(SCC(=O)Nc2cccc(C(F)(F)F)c2)[nH]c1=O | i
COc1ccc(Br)cc1C1NC(=O)NC(C)=C1C(=O)N(C)C (stereo unspecified) | i
COc1ccc(Cc2nnc(NC(=O)c3ccco3)s2)cc1OC | i
CCOc1ccc(NS(=O)(=O)c2ccc(N)cc2)cc1 | 1.5
CCCCNC(=O)Nc1cc(C)on1 | 0.1
CCOC(=O)c1c(-c2ccccc2)csc1NC(=S)NC(=O)c1ccccc1 | 19.4
CN(Cc1ccccc1)C(=O)Cn1cccc1C(=O)c1ccccc1 | i
COc1ccc(-c2nnc(SCCOc3cccc(C)c3)n2N)cc1 | i
Cc1noc(C)c1COC(=O)c1ccc(-c2nc3ccccc3s2)s1 | i
COc1ccc(N/C(C)=C2/C(=O)C(=O)N(CCO)C2c2ccc(Br)cc2)cc1 (stereo unspecified) | 1.3
COCCNC(=O)C1CC(=O)N(C2CCCC2)C1 (stereo unspecified) | 0.6
Cc1cc(C)cc(CSc2nnc(C)c(=O)[nH]2)c1 | 0.2
CCOC(=O)c1c(CN2CCOCC2)n(-c2ccccc2)c2cc(Br)c(O)cc12 | 3.9
COc1ccc(CCn2c(C)cc(C(=O)CSc3nnnn3-c3ccccc3)c2C)cc1OC | i
COC(=O)CSc1nnc([C@H](CC(C)C)NC(=O)OC(C)(C)C)o1 | i
Cc1ccccc1-c1nc(S(=O)(=O)c2ccc(Br)cc2)c(NCc2cccnc2)o1 | i
COc1ccccc1C(=O)Nc1cc(Cl)ccc1O | i
Cc1cc(OCC(O)CN2CCN(CCO)CC2)ccc1C(C)C (stereo unspecified) | i
CC1CCCC(C)N1C(=O)Cc1ccccc1 (stereo unspecified) | 1.5
CCCc1[nH]n(-c2ccc([N+](=O)[O-])cc2)c(=O)c1C=NCCc1c[nH]c2ccccc12 | i
COc1ccccc1NC(=O)CSc1nc2nc(C)cc(C)c2c(=O)[nH]1 | 1.7
O=C(/C=C/c1ccccc1)NC(NC(=S)Nc1cc(Cl)ccc1Cl)C(Cl)(Cl)Cl (stereo unspecified) | 0.8

Three compounds drawn at random from the list so far:
SMILES | H5N1 antiviral
CCOC(=O)c1c(-c2ccccc2)csc1NC(=S)NC(=O)c1ccccc1 | 19.4
Cc1noc(C)c1COC(=O)c1ccc(-c2nc3ccccc3s2)s1 | i
COCCNC(=O)C1CC(=O)N(C2CCCC2)C1 (stereo unspecified) | 0.6

Looked up above.
CCCCNC(=O)Nc1cc(C)on1 in H5N1 antiviral = 0.1
CC1CCCC(C)N1C(=O)Cc1ccccc1 (stereo unspecified) in H5N1 antiviral = 1.5
FC(F)(F)c1nc(N2CCCC2)ncc1-c1nnnn1-c1ccc(Cl)cc1 in H5N1 antiviral = 1.6
NC(=O)C1CCN(CC(=O)NCc2ccccc2)CC1 in H5N1 antiviral = 1.2
CC1(C)C(=O)C2(C(=O)NCc3ccccc3)CCC1C2 (stereo unspecified) in H5N1 antiviral = 1.8
O=C(/C=C/c1ccccc1)NC(NC(=S)Nc1cc(Cl)ccc1Cl)C(Cl)(Cl)Cl (stereo unspecified) in H5N1 antiviral = 0.8

(listing goes on)
SMILES | H5N1 antiviral
CCCCN(C)CCCNC(=O)c1ccc(N2CCCC2=O)cc1 | 0.2
Cc1nc(S/C(=C/c2ccc(-c3cccc(Cl)c3)o2)C(=O)O)n[nH]1 | 1.0
Cc1nc2ncnn2c(C)c1CCC(=O)N1CCC2(CC1)OCCO2 | 1.0
COc1cc(-c2nnc3sc(C4CCCCC4)nn23)cc(OC)c1OC | 1.6
O=C(O)c1ccc(S(=O)(=O)NC2CCCCC2)cc1 | i
c1cc(C(c2nnnn2C2CCCCC2)N2CCN3CCCC3C2)ccn1 (stereo unspecified) | 0.1
CNCc1cc2ccc(C)cc2[nH]c1=O | 1.4
CCCCn1c(SCC(=O)c2cc(OC)ccc2OC)nc2cc(S(N)(=O)=O)ccc21 | 0.3
CC1CCCCC12NC(=O)N(CC(=O)Nc1ccc(S(=O)(=O)N3CCOCC3)cc1)C2=O (stereo unspecified) | 1.8
COc1ccc(NC(=O)c2ccc3c(c2)C(=O)N(Cc2cccnc2)C3=O)c(OC)c1 | i
N#CC12CCCCC1CC1CCCCC1(C#N)N2Cc1cccnc1 (stereo unspecified) | 0.6
COc1ccc(Cl)cc1C(=O)CSc1nnnn1C1CCCCC1 | i
CCOc1ccc(-c2nnc(-c3snc(-c4ccc(F)cc4)c3N=CN(C)C)o2)cc1 | i
CCN(CC)CCCNC(=O)c1c(O)c2c([nH]c1=O)CCCC2 | i
CCc1ccc2c(CN3CCc4ccccc43)cc(=O)oc2c1 | 0.3
c1ccc(-c2cn3c4c(sc3n2)CCCC4)cc1 | i
Cc1nnc(Nc2ccc3c(c2)OCO3)c2ccccc12 | 0.6
COC(=O)c1ccccc1NC(=O)CN1C(=O)CSC1=O | i
COCc1cc(=O)n2[nH]c(SCc3ccccc3)nc2n1 | i
Cc1cc(=O)c2cc(Cl)ccc2[nH]1 | 0.1
COc1ccc(CNc2nc(SCC(=O)NCc3ccco3)nc3ccccc23)cc1 | i
COCCNC(=O)C(c1ccc(C)o1)N(Cc1ccccc1)C(=O)Cn1nnc2ccccc21 (stereo unspecified) | 0.4
CCN(CC)c1ccc(SS(=O)(=O)O)cc1 | 0.6
Cc1cc(C)n(Cc2ccc(Cl)cc2Cl)c(=O)c1S(=O)(=O)c1ccccc1 | 1.4
N#Cc1cn(CCOc2ccccc2F)c2ccccc12 | 0.5

(more compounds)
SMILES | H5N1 antiviral
Cc1cc(OCC(=O)O/N=C(\N)c2ccccc2)cc(C)c1Cl | i
O=C(CSCc1cnn(-c2ccccc2)c1-n1cccc1)NCCN1CCOCC1 | 0.7
Cc1ccc(NC(=O)c2cc(Cl)nc3ccccc23)cc1 | i
Cc1cc(=O)[nH]c(COc2ccccc2)n1 | i
c1ccc(Cn2nnc3c(N4CCc5ccccc54)ncnc32)cc1 | 1.1
CCCCN(CCCC)c1cc(C)nc(-c2ccccc2O)n1 | 1.9
O=C(c1ccco1)N1CCN(S(=O)(=O)c2ccc(Br)s2)CC1 | 0.1
COCCNCCOCCOc1cccc(OC)c1 | 0.1
Cc1ccc(CNC(=O)C2CCCN(S(=O)(=O)c3cccnc3)C2)cc1 (stereo unspecified) | i
CCOC(=O)c1c(C)c(C(=O)NCc2ccccn2)c(C)n1C | i

4 of the compounds above, field by field.
Cc1cc(OCC(=O)O/N=C(\N)c2ccccc2)cc(C)c1Cl
- H5N1 antiviral: i
COCCNCCOCCOc1cccc(OC)c1
- H5N1 antiviral: 0.1
Cc1ccc(CNC(=O)C2CCCN(S(=O)(=O)c3cccnc3)C2)cc1 (stereo unspecified)
- H5N1 antiviral: i
Cc1cc(=O)[nH]c(COc2ccccc2)n1
- H5N1 antiviral: i

Bioassay records as filed in PubChem BioAssay.
